Sa RN4220 lethal – kills Staphylococcus aureus RN4220; S. aureus RN4220 growth, OD600, 16 h; inhibition, % (test concentration not listed); actives 0.33% (n = 330,000);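 active = z-score of -3 or lower and OD600 up to 0.18 on both plates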;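 also: plate controls were untreated cells for no effect and reference antibiotic for full effect; stock transfer was 100 nL into about 80 µL; one replicate is shown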
Bead autofluor – counter-screen for toxin protease inhibitors: compound fluorescence | compound autofluorescence counterscreen, microsphere flow cytometry; stronger effect = higher value | fluorescence intensity (test concentration not listed) | actives 3.1% (n = 360,000);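 active = at least 3 SD above the mean of all compounds, about 16000 in these data; inconclusive = too few beads counted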;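 also: 100 nL of 1 mM stock went into each well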
PrP 5UTR inh – suppresses PrP 5' UTR mRNA reporter expression; cell-based PrP 5' UTR mRNA reporter, plate reader; actives 0.35% (n = 340,000); inhibition, % (no concentration beside the values);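 active = every replicate at 50% or more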;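 also: 0 = median of the neutral control wells; tested in H4 reporter cells; numbers are from one replicate; inactives centre near -14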
ugtP null kill – growth inhibition of S. aureus ugtP deletion strain. S. aureus RN4220 ugtP deletion, OD600 growth, 16 h; some inactives read as strong as hits. growth inhibition, % (concentration not given with the values). actives 0.54% (n = 330,000). AID 1259309;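 active = z-score under -3 and OD600 up to 0.15 on both plates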;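 also: plate controls were untreated wells for no effect and antibiotic for full effect; wells of about 80 µL received 100 nL stock; the first replicate is given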
Mtb hypoxia rep – inhibitors of hypoxia-regulated fluorescent reporter in Mycobacterium tuberculosis | M. tuberculosis hypoxia-regulated fluorescent reporter, fluorescence | fluorescence inhibition, % (test concentration not listed) | actives 0.1% (n = 300,000) | AID 1159583;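 active = 35 to 45% if threefold the growth effect, above 45% if 1.5-fold the growth effect; inactive = the rest, general growth blockers included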;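 also: wells of about 50 µL received 100 nL stock; 0% = vehicle wells and 100% = reference inhibitor wells; whole bacteria with a GFP reporter of the hypoxia response; strong numbers were not always called active; many hits fall short of the cut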
BJeLR viability – BJeLR cell viability loss; BJeLR (HRASV12) viability, CellTiter-Glo ATP luminescence, 48 h; reference of the scale not given here; inhibition, % (concentration not given with the values); actives 0.17% (n = 300,000);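 active = replicate mean above 50%; inconclusive = above 50% but judged a plate artefact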;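 also: 50 nL library stock added to about 25 µL; numbers are from one replicate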
Mtb hypoxia rep growth – recorded beside Mtb hypoxia rep, whose call it bears; growth inhibition, %; measured here: M. tuberculosis growth (absorbance);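 0% = vehicle and 100% = reference antibiotic; read after six days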
Numbers without * were called inactive.

Screening O=C(CCNC(=O)c1ccccc1)Oc1ccc([N+](=O)[O-])cc1 returned Sa RN4220 lethal 7.6, Bead autofluor 2135, PrP 5UTR inh -2, ugtP null kill 8, Mtb hypoxia rep 7, BJeLR viability -4 and Mtb hypoxia rep growth 12.
For O=C(C1CCC1)N1CCc2cc(S(=O)(=O)NCC3COc4ccccc4O3)ccc21 (centres undefined) the results were Sa RN4220 lethal 1.5, Bead autofluor 2976, PrP 5UTR inh -6, ugtP null kill 3 and BJeLR viability 0.
Screening CC1Nc2ncnc(N3CCOCC3)c2N(Cc2ccc(Cl)cc2)C1=O (centres undefined) returned Sa RN4220 lethal 2.7, Bead autofluor 2885, PrP 5UTR inh -27, ugtP null kill 1, Mtb hypoxia rep -5, BJeLR viability -6 and Mtb hypoxia rep growth -2.
For O=C(NCc1ccco1)c1cc(-c2ccc3c(c2)OCO3)on1 the results were Sa RN4220 lethal 4.1, Bead autofluor 17176*, PrP 5UTR inh -67, ugtP null kill -10, Mtb hypoxia rep -5, BJeLR viability 4 and Mtb hypoxia rep growth 1.
For CC(=O)N1CCN(S(=O)(=O)c2cccc(C(=O)NNC(=O)COc3ccc(Cl)cc3C)c2)CC1 the results were Sa RN4220 lethal 2.3, Bead autofluor 6043, PrP 5UTR inh -25, ugtP null kill 7, Mtb hypoxia rep 2, BJeLR viability 2 and Mtb hypoxia rep growth 5.
Screening COC(=O)c1c(NC(=O)CCS(=O)(=O)c2ccccc2)sc2c1CCN(C)C2 returned Sa RN4220 lethal 4.5, Bead autofluor 5526, PrP 5UTR inh -13, ugtP null kill 8, Mtb hypoxia rep 9, BJeLR viability -7 and Mtb hypoxia rep growth 1.
Screening O=C(NC(=S)Nc1ccc(Cl)cn1)C(c1ccccc1)c1ccccc1 returned Sa RN4220 lethal -17, Bead autofluor 2286, PrP 5UTR inh -24, ugtP null kill -27 and BJeLR viability -12.
For COc1ccc(OC)c(NC(=O)N2CCCC(C(=O)c3ccccc3OC)C2)c1 (centres undefined) the results were Sa RN4220 lethal 5.3, Bead autofluor 4271, PrP 5UTR inh -20, ugtP null kill 1, Mtb hypoxia rep 1 and Mtb hypoxia rep growth 0.
For O=S1(=O)N=C2CCCCCN2C(c2ccccc2)N1 (centres undefined) the results were Sa RN4220 lethal 9.3, Bead autofluor 6345, PrP 5UTR inh -53, ugtP null kill 12, Mtb hypoxia rep -5, BJeLR viability 2 and Mtb hypoxia rep growth 0.
Screening O=C(O)C1CC=CCC1C(=O)N1CCN(c2nc(-c3ccccc3)c3ccccc3n2)CC1 (centres undefined) returned Bead autofluor 2600, PrP 5UTR inh -12 and BJeLR viability 1.
`O=[N+]([O-])c1ccc(N2CCN(Cc3ccc4c(c3)OCO4)CC2)nc1` gave Sa RN4220 lethal 3.9, Bead autofluor 3421, PrP 5UTR inh -20, ugtP null kill 5, Mtb hypoxia rep 2, BJeLR viability -2 and Mtb hypoxia rep growth 7.
For COc1ccccc1NC(=O)C(=O)NNC(=O)COc1ccc2ccccc2c1 the results were Bead autofluor 5425, PrP 5UTR inh -24 and BJeLR viability -7.
Screening CCc1cccc(C)c1N(C(=O)Cn1c(CO)nc2ccccc21)C(C)COC (centres undefined) returned Sa RN4220 lethal 0.2, Bead autofluor 2402, PrP 5UTR inh -15, ugtP null kill -8 and BJeLR viability -10.
`COC(=O)c1ccc(S(=O)(=O)N2C3CCC2CC(NC(=O)C2CC2)C3)cc1` (centres undefined) gave Sa RN4220 lethal -1.0, Bead autofluor 8602, PrP 5UTR inh -14, ugtP null kill -3, Mtb hypoxia rep 0, BJeLR viability 6 and Mtb hypoxia rep growth 6.
Screening Cc1cccc(NC(=S)NNC(=O)CC(C)O)c1C (centres undefined) returned Sa RN4220 lethal 2.9, Bead autofluor 2508, PrP 5UTR inh -15, ugtP null kill 1, Mtb hypoxia rep 10, BJeLR viability 0 and Mtb hypoxia rep growth 1.
Cc1cccc(/C=C2\Sc3ccc(C(=O)N4CCC(C)CC4)cc3N(C)C2=O)c1 was read as Sa RN4220 lethal 11, Bead autofluor 5632, PrP 5UTR inh -4, ugtP null kill -17, Mtb hypoxia rep 1, BJeLR viability 4 and Mtb hypoxia rep growth 8.
Screening O=C(Nc1cccnc1)c1ccc(F)c(S(=O)(=O)N2CCOCC2)c1 returned Sa RN4220 lethal 0.9, Bead autofluor 5049, PrP 5UTR inh -30, ugtP null kill -1, Mtb hypoxia rep 12, BJeLR viability -4 and Mtb hypoxia rep growth 4.
Screening COC(=O)c1scc(C)c1NC(=O)Nc1ccccc1 returned Sa RN4220 lethal -2.2, Bead autofluor 2624, PrP 5UTR inh -10, ugtP null kill 8 and BJeLR viability 2.
For Cc1ccc(CSCC(=O)N(C)CC(=O)Nc2c(Cl)cccc2Cl)cc1 the results were Sa RN4220 lethal 0.6, PrP 5UTR inh -6, ugtP null kill -6, Mtb hypoxia rep -8, BJeLR viability -8 and Mtb hypoxia rep growth 3.
`COCCN1C(=O)NC(c2ccccc2)C(C(=O)OC)=C1C` (centres undefined) gave Sa RN4220 lethal -1.9, ugtP null kill -11, Mtb hypoxia rep 0 and Mtb hypoxia rep growth -5.
NC(=O)c1ccc(Oc2ccc(-c3nnco3)cc2)c([N+](=O)[O-])c1 was read as Sa RN4220 lethal 5.5, Bead autofluor 4012, PrP 5UTR inh -2, ugtP null kill 16, Mtb hypoxia rep 4, BJeLR viability -3 and Mtb hypoxia rep growth -1.
Screening COCCC(=O)N1CCC(Oc2ccc(C(=O)NCc3nccn3C)cc2)CC1 returned Sa RN4220 lethal 1.7, Bead autofluor 5498, PrP 5UTR inh -8, ugtP null kill 3, Mtb hypoxia rep -4, BJeLR viability -8 and Mtb hypoxia rep growth 5.
For CC(OC(=O)C1CCN(S(=O)(=O)c2ccc(F)cc2)CC1)C(=O)NC1CCCCC1C (centres undefined) the results were Sa RN4220 lethal 3.2, Bead autofluor 6352, PrP 5UTR inh -15, ugtP null kill 2, Mtb hypoxia rep 8, BJeLR viability -11 and Mtb hypoxia rep growth -2.
Screening Cc1ccc(O)c(NC(=O)c2cc(-c3ccccc3)on2)c1 returned Sa RN4220 lethal 1.3, Bead autofluor 4558, PrP 5UTR inh -37, ugtP null kill 6, Mtb hypoxia rep 7, BJeLR viability 7 and Mtb hypoxia rep growth 14.
`CCc1ccc(NC(=O)Cc2ccc(NC3=NC4CS(=O)(=O)CC4S3)cc2)cc1` (centres undefined) gave Sa RN4220 lethal -12, Bead autofluor 5118, PrP 5UTR inh -12, ugtP null kill -4, Mtb hypoxia rep -3, BJeLR viability -16 and Mtb hypoxia rep growth 8.
`C#CCOc1nc(OCC#C)nc(OCC#C)n1` gave Sa RN4220 lethal -0.9, Bead autofluor 5451, PrP 5UTR inh -9, ugtP null kill 6 and BJeLR viability -1.
`O=C(CSc1nnnn1C1CC1)N1CCN(c2ccc(O)cc2)CC1` gave Sa RN4220 lethal 3.3, Bead autofluor 8424, PrP 5UTR inh -20, ugtP null kill 4, Mtb hypoxia rep -1 and Mtb hypoxia rep growth -1.
For Cc1ccc(NS(=O)(=O)c2ccc3c(c2)n(C)c(=O)n3C)cc1 the results were Sa RN4220 lethal 3.6, Bead autofluor 3738, PrP 5UTR inh -14, ugtP null kill -5, Mtb hypoxia rep -2, BJeLR viability 0 and Mtb hypoxia rep growth 1.
CCc1c(C)nc2c(-c3ccccc3)c(-c3ccccc3)[nH]n2c1=O was read as Sa RN4220 lethal 0.6, Bead autofluor 3915, PrP 5UTR inh -2, ugtP null kill -10, Mtb hypoxia rep 0, BJeLR viability 1 and Mtb hypoxia rep growth 6.
`O=[N+]([O-])c1ccc(C=Nc2ccc(Cl)cc2Cl)s1` gave Sa RN4220 lethal 9.6, Bead autofluor 22301*, PrP 5UTR inh -28, ugtP null kill 11, Mtb hypoxia rep -9, BJeLR viability -3 and Mtb hypoxia rep growth 4.
Screening COc1cc(C(=O)N(C)C2CCCCC2)ccc1OC1CCN(C(C)=O)CC1 returned Sa RN4220 lethal 4.6, Bead autofluor 4217, PrP 5UTR inh -16, ugtP null kill 15, Mtb hypoxia rep 1, BJeLR viability 4 and Mtb hypoxia rep growth -3.
`O=C(Nc1ccc(S(=O)(=O)NC2=NCCCCC2)cc1)c1ccccc1Cl` gave Sa RN4220 lethal 4.3, Bead autofluor 4332, PrP 5UTR inh -24, ugtP null kill 8, Mtb hypoxia rep -5, BJeLR viability 12 and Mtb hypoxia rep growth 1.
Screening CCOC(=O)C1C(c2ccccc2)C(C(=O)OCC)S(=O)(=O)C(CCN(CC)CC)S1(=O)=O (centres undefined) returned Sa RN4220 lethal 3.0, Bead autofluor 2255, PrP 5UTR inh -40, ugtP null kill -7, Mtb hypoxia rep 3, BJeLR viability 4 and Mtb hypoxia rep growth 4.
CN(C)C(CNC(=O)CCc1nc2sc3c(c2c(=O)[nH]1)CCCC3)c1ccccc1 (centres undefined) was read as Sa RN4220 lethal 2.9, Bead autofluor 6430, PrP 5UTR inh -12, ugtP null kill 2, Mtb hypoxia rep 11, BJeLR viability -11 and Mtb hypoxia rep growth -4.
For O=C(c1cccc(C(F)(F)F)c1)N1CCN(CCc2ccccc2)CC1 the results were Sa RN4220 lethal 0.2, Bead autofluor 5667, PrP 5UTR inh -8, ugtP null kill -1, Mtb hypoxia rep -1, BJeLR viability 2 and Mtb hypoxia rep growth 1.
COc1ccc(C)cc1-n1c(N)c(C#N)c(C#N)c1-c1ccc(OC)c(OC)c1OC was read as Sa RN4220 lethal -13, Bead autofluor 2593, PrP 5UTR inh 0, ugtP null kill -9, Mtb hypoxia rep 1, BJeLR viability -2 and Mtb hypoxia rep growth 1.
Screening O=C1[C@@H]2CSCN2C(=O)CN1Cc1ccccc1F returned Sa RN4220 lethal 1.2, Bead autofluor 3818, PrP 5UTR inh -21, ugtP null kill 3, Mtb hypoxia rep 4, BJeLR viability 1 and Mtb hypoxia rep growth 4.
`Cc1ccc(OCC(=O)Nc2cc(S(=O)(=O)N3CCOCC3)ccc2N2CCCC2)cc1` gave Sa RN4220 lethal -0.5, Bead autofluor inconclusive, PrP 5UTR inh -1, ugtP null kill -4, Mtb hypoxia rep -6 and Mtb hypoxia rep growth -2.
Screening O=C(O)CC(c1ccc(C(F)(F)F)cc1)N1Cc2ccccc2C1=O (centres undefined) returned Sa RN4220 lethal 4.1, Bead autofluor 4079, PrP 5UTR inh -26, ugtP null kill 5, Mtb hypoxia rep 12, BJeLR viability -13 and Mtb hypoxia rep growth -1.
CN1C(=O)CC(c2cn(Cc3ccccc3)c3ccccc23)C1=O (centres undefined) was read as Sa RN4220 lethal 5.4, Bead autofluor 5255, PrP 5UTR inh -14, ugtP null kill 3, Mtb hypoxia rep 18, BJeLR viability 9 and Mtb hypoxia rep growth 5.
`Cc1cccc(NS(=O)(=O)c2csc(C(N)=O)c2)c1` gave Sa RN4220 lethal 2.4, Bead autofluor 3894, PrP 5UTR inh -1, ugtP null kill 4, Mtb hypoxia rep -10, BJeLR viability 18 and Mtb hypoxia rep growth -3.
For Cc1ccc(NC(=O)CS(=O)CC(=O)NCC2CCCO2)cc1 (centres undefined) the results were Sa RN4220 lethal 1.1, Bead autofluor 8577, PrP 5UTR inh -11, ugtP null kill 0, Mtb hypoxia rep 8, BJeLR viability 4 and Mtb hypoxia rep growth 10.
Screening COCCn1c(-c2ccc(Cl)cc2)nc2c(c(=O)c3ccccc3n2C)c1=O returned Sa RN4220 lethal 0.8, ugtP null kill 4, Mtb hypoxia rep 7, BJeLR viability -10 and Mtb hypoxia rep growth 3.

3 consecutive records out of the list so far, quoted:
`Cc1cccc(NS(=O)(=O)c2csc(C(N)=O)c2)c1` gave Sa RN4220 lethal 2.4, Bead autofluor 3894, PrP 5UTR inh -1, ugtP null kill 4, Mtb hypoxia rep -10, BJeLR viability 18 and Mtb hypoxia rep growth -3.
For Cc1ccc(NC(=O)CS(=O)CC(=O)NCC2CCCO2)cc1 (centres undefined) the results were Sa RN4220 lethal 1.1, Bead autofluor 8577, PrP 5UTR inh -11, ugtP null kill 0, Mtb hypoxia rep 8, BJeLR viability 4 and Mtb hypoxia rep growth 10.
Screening COCCn1c(-c2ccc(Cl)cc2)nc2c(c(=O)c3ccccc3n2C)c1=O returned Sa RN4220 lethal 0.8, ugtP null kill 4, Mtb hypoxia rep 7, BJeLR viability -10 and Mtb hypoxia rep growth 3.

Compounds were not picked by outcome; about 3.9% have a hit in one of these screens.
